Screening data from PubChem BioAssay.
MenB inh – blocks the Mycobacterium tuberculosis MenB enzyme | P9WNP5 | 100,000 compounds, 0.43% hits | inhibition, %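 (about 12 µg/mL by stock and volumes)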 | MenB enzyme assay, absorbance read-out; some hits fall short of the stated cut;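 active means mean of two replicates above 30%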;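 further: 0% = no compound and 100% = wells with inactive enzyme; the first replicate is given; strong numbers were not always called active; inactives centre near -10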
Target sequence (P9WNP5 whole entry, looked up): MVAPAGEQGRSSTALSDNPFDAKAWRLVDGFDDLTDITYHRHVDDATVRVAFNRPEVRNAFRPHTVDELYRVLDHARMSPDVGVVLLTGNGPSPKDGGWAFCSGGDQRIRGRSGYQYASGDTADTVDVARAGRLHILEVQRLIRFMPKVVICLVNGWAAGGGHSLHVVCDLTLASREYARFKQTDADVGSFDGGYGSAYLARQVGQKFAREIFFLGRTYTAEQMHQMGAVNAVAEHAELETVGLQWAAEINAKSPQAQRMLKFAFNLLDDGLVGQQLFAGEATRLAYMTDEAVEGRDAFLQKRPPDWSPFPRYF
Polio RdRp inh – poliovirus RNA polymerase inhibition; P03300; poliovirus polymerase elongation, fluorescence polarization; stronger effect = lower value; % elongation, % (compound at 16.7 µg/mL); 150,000 compounds, 0.66% hits; in the data active means % elongation below about 90%; further: some results filed as inactive read as strong as hits
Target sequence (P03300 1749-2209 limits assumed): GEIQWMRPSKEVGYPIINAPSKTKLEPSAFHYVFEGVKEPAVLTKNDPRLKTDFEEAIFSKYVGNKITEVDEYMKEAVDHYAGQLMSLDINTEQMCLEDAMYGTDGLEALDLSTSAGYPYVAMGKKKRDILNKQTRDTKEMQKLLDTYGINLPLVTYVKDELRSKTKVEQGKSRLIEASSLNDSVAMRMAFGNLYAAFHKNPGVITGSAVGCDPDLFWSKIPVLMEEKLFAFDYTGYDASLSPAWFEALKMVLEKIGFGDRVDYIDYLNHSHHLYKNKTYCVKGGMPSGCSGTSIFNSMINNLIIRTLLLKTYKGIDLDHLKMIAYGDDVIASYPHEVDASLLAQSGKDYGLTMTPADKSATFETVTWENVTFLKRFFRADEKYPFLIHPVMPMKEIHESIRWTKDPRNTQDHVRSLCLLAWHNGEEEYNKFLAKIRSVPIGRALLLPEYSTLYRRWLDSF
Mtb MbtI inh – inhibitors of Mycobacterium tuberculosis siderophore enzyme MbtI; purified MbtI enzyme, fluorescence intensity read-out; inhibition, %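 (about 17 µg/mL by stock and volumes)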; 100,000 compounds, 0.89% hits; AID 493033;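 active means above 50% in both replicates, above 80% if mildly self-fluorescent; inactive means the rest, strongly fluorescent compounds included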;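 further: 0% = mean of negative and 100% = mean of positive controls; one replicate is shown; some compounds called inactive have numbers as strong as hits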
Polio RdRp inh intensity – second read-out of Polio RdRp inh, no call of its own (marks repeat the call); % elongation; measured here: total intensity read-out; formula for this scale not given here;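 total fluorescence in place of polarization; lower means less elongation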
Numbers without * were called inactive; i = inactive; · = not tested or not shown.

SMILES	MenB inh	Polio RdRp inh	Polio RdRp inh intensity	Mtb MbtI inh
O=C(NCCN1CCN(c2cccc(Cl)c2)CC1)Nc1ccc(Cl)cc1	-34	103	99	2
Cc1cc(C(=O)NCc2cccnc2)no1	-11	97	93	-3
NNC(=O)c1cncc(C#Cc2ccccc2)c1	-4	103	110	8
CCN(CC)S(=O)(=O)c1ccc(N=Nc2c(O)[nH]c(=S)[nH]c2=O)cc1	-57	97	110	18
Cc1nnc(SCc2nc3ccccc3c(=O)[nH]2)n1C1CC1	-13	103	102	-14
Cc1cc(Br)ccc1OCC(=O)O	-22	102	109	·
CS(=O)(=O)N1Cc2ccccc2CC1C(=O)OCC(=O)c1ccc(Br)s1 (stereo unspecified)	-45	109	103	-8
CCN(CCCNc1nnc2c3ccccc3n(C)c2n1)c1cccc(C)c1	7	104	103	-19
CN(CCNC(=O)Cn1ncc2c1-c1ccccc1OC2)C1CCCCC1	-13	103	102	4
O=C(/C=C/c1ccc(F)cc1)Oc1cc(Cl)c[nH]c1=O	18	90	90	-25
COc1ccc(-c2cc(C(=O)NCCc3ccccc3)c3ccccc3n2)cc1	-8	102	108	103
COc1ccc(CNC(=O)c2cc(-c3ccccc3)n[nH]2)cc1	-47	102	99	-8
CCCc1cc(=O)n(-c2ccc(C(=O)O)cc2)[nH]1	-46	99	100	-1
Nc1cc(C(=O)c2ccccc2)ccc1N1CCOCC1	-50	101	104	8
CC1CCCC(C)N1Cn1nc(-c2ccccc2)n(-c2ccccc2)c1=S (stereo unspecified)	-14	101	100	-7
CCS(=O)(=O)c1ccc(NC(=O)c2ccccc2)c(O)c1	0	104	107	·
Cc1ccc(NS(=O)(=O)c2ccc(OCC(=O)N3CCN(C)CC3)cc2)cc1	-6	102	100	-6
CCOc1ccc(Br)cc1S(=O)(=O)n1cnc2ccccc21	·	105	107	-11
C=CCOC(=O)C1=C(C)Nc2[nH]c(=O)[nH]c(=O)c2C1c1ccc(O)cc1 (stereo unspecified)	-17	100	102	-7
C=CCn1c(CCNC(=O)c2cccs2)nnc1SCC(=O)Nc1cccc(F)c1	-25	103	101	-2
O=C1CSC(c2ccccc2)N1c1ccc(Cl)cc1 (stereo unspecified)	5	100	107	-4
NNC(=O)CO/N=C/c1ccc(Cl)cc1Cl	-38	100	103	-3
CC(OC(=O)c1cn(C)c2ccccc12)C(=O)N(C)c1ccccc1 (stereo unspecified)	-7	100	108	-9
CCC(=O)N1CCN(CCN=CC2=C(O)CC(c3ccccc3)CC2=O)CC1 (stereo unspecified)	1	103	102	12
O=C(CNS(=O)(=O)/C=C/c1ccccc1)OC1CCOC1=O (stereo unspecified)	-17	100	95	20
N#Cc1c(-c2ccccc2)cc(-c2cccs2)nc1SCS(=O)Cc1ccccc1 (stereo unspecified)	-5	103	105	16
OC1CCN(Cc2ccc(F)cc2)CC1	-38	100	100	-12
CC1CC(C)CN(C(=O)c2ccc(NC(=O)c3ccc(=O)[nH]c3)cc2)C1 (stereo unspecified)	-28	100	101	-2
CC1=NN(C2=NS(=O)(=O)c3ccccc32)C(C)(O)C1 (stereo unspecified)	i	100	101	10
CC(=O)O/N=C/c1ccc(N(C)C)cc1	-27	100	103	5
Cc1noc(C)c1COC(=O)c1cccnc1SCC(=O)Nc1ccc2c(c1)OCO2	-21	107	106	10
Cc1ccc(S(=O)(=O)CCC(=O)OCc2nnc(-c3ccccc3Br)o2)cc1	-31	117	106	1
Cc1c(C#N)c2ccccc2n1CC(N)=O	0	104	98	·
Cc1oc(-c2ccc(Cl)cc2)cc1COC(=O)Nc1ccccc1	-23	100	97	21
CC(=O)Nc1cc(-c2ccc(Br)cc2)nn1Cc1ccc(Cl)cc1	-12	104	109	·
N#C/C(=C\c1ccc(O)cc1)C(N)=S	-361	102	100	51
CNS(=O)(=O)c1ccc(CCC(=O)N2CCCCC2)cc1	0	100	102	-7
O=c1cc(CSC2=NCCS2)nc2sccn12	0	99	100	-4
COc1ccccc1N1CCN(S(=O)(=O)c2ccc3c(c2)C(C2CCCC2)C(=O)N3)CC1 (stereo unspecified)	-19	101	99	5
CC(=O)[C@H]1CC[C@H]2[C@@H]3CCC4=CC(=O)CC[C@]4(C)[C@H]3CC[C@]12C	1	102	102	0
COC(=O)c1sc(NC(=O)CN2CCOCC2)c(C(=O)OC)c1C	-20	103	111	-10
C=CCNC(=O)c1ccc(OCCCC)cc1	-8	101	103	-16
c1ccc(-c2noc(N3CCCC3)n2)cc1	8	102	102	-3
CN(C)c1nc(Oc2ccc(=O)[nH]n2)nc(N2CCOCC2)n1	-13	101	103	-1
COc1cccc(/C=N/NC(=O)c2cccc(Cl)c2)c1O	-150	102	104	-25
O=C(CCCC(=O)Nc1ccc(F)cc1)Nc1ccc(F)cc1	-9	98	96	·
COc1ccc(CCN2C(=O)/C(=C/c3ccccc3Cl)SC2=S)cc1OC	-23	102	109	-11
O=C(NC(Cc1ccccc1)C(=O)N1CCCCC1)c1cccs1 (stereo unspecified)	3	103	111	·
CCN(CC)S(=O)(=O)c1cccc(C(=O)N=Nc2c(O)[nH]c3ccccc23)c1	-43	99	90	-10
CC1Cc2ccccc2N1C(=O)c1cccc(C(=O)N2c3ccccc3CC2C)n1 (stereo unspecified)	-16	102	98	·
COC(=O)c1ccc(S(=O)(=O)N2CCCN(C(=O)OC(C)(C)C)CC2)n1C	-13	102	98	-3
COc1cc(C(=O)N2CCN(Cc3ccccc3)CC2)cc(CN2C(=O)c3ccccc3C2=O)c1OC	-17	101	103	-6
Cc1ccccc1NC(=S)NN1CCN(C)CC1	-14	109	103	·
NC(=O)c1ccc(N=Cc2ccc[nH]2)cc1	-13	99	103	29
CC1(C)NC(=O)N(CC(O)CNC23CC4CC(CC(C4)C2)C3)C1=O (stereo unspecified)	-37	101	102	2
O=C(O)/C=C/c1ccc(/C=C/C(=O)O)cc1	-13	102	102	30
CCc1ccc(-c2nn(-c3ccccc3)cc2/C=C2\SC(N)=NC2=O)cc1	-15	109	121	-50
Cc1c(C)c(C)c(S(=O)(=O)NC(C)(C)C)c(C)c1C	-5	107	106	-12
N#CC1(NC(=O)Cn2cc(Br)ccc2=O)CCCC1	-18	104	105	1
O=C(CCSc1nc(-c2ccco2)cc(C(F)(F)F)n1)NCCN1CCOCC1	3	102	104	10

Structural class, the compounds so far with a tert-butyl group (2)
SMILES	MenB inh	Polio RdRp inh	Polio RdRp inh intensity	Mtb MbtI inh
COC(=O)c1ccc(S(=O)(=O)N2CCCN(C(=O)OC(C)(C)C)CC2)n1C	-13	102	98	-3
Cc1c(C)c(C)c(S(=O)(=O)NC(C)(C)C)c(C)c1C	-5	107	106	-12

More structures:
SMILES	MenB inh	Polio RdRp inh	Polio RdRp inh intensity	Mtb MbtI inh
Cc1cc(C(=O)Nc2cccc3ncccc23)no1	-22	106	110	-7
CC(C)c1ccc(N(CC(=O)Nc2ccc3c(c2)n(C)c(=O)n3C)S(C)(=O)=O)cc1	-14	101	101	-7
COc1ccc(CNc2ccccc2)cc1Br	-13	110	113	·
Cc1nn(C2CCS(=O)(=O)C2)c(Cl)c1/C=C/C(=O)OCCN1C(=O)c2ccccc2C1=O (stereo unspecified)	6	·	·	11
CCCn1nc2ccccc2c1P(=NC(=O)Nc1cccc(Cl)c1)(N1CCOCC1)N1CCOCC1	-117	103	105	-12
CC1CC1C(=O)Nc1ccccc1C#N (stereo unspecified)	10	99	100	9
CCOC(=O)c1cn[nH]c1NC(=S)Nc1ccccc1	5	97	94	21
NC(=O)c1cc2ccccc2nc1C(N)=O	-11	97	98	·
CC(OC(=O)c1ccc(O)cc1)C(=O)Nc1cc(Cl)cc(Cl)c1 (stereo unspecified)	·	101	97	-9
O=C(COC(=O)c1cccnc1Cl)c1cccc(Cl)c1	·	102	104	-1
CCn1c(-c2c(Cl)c(C)nn2C)n[nH]c1=S	-14	104	104	9
Cc1cccc(NC(=O)Cn2c(=O)n(-c3ccc(F)cc3)c(=O)c3sccc32)c1	-17	101	98	-5
COc1ccc(Nc2nc(-c3ccc(OC)cc3)no2)cc1	-38	105	108	-10
Cc1ccc(C(=O)OC(C)C(=O)Nc2ccc(S(N)(=O)=O)cc2)s1 (stereo unspecified)	-24	105	110	-2
O=C(OCC1CCCN2CCCCC12)c1cc2nc(-c3ccco3)cc(C(F)(F)F)n2n1 (stereo unspecified)	-22	102	105	·
COc1ccc(CNc2ccc(C)c(C)c2)c(OC)c1OC	9	102	101	1
Cc1ccc(S(=O)(=O)NC(=O)Nc2cccc(C(F)(F)F)c2)cc1	-12	104	112	·
O=C1CCCC2=C1C(c1ccc(Br)cc1)n1nc(-c3ccco3)nc1N2 (stereo unspecified)	-12	105	108	-5
O=C(Cc1n[nH]c(=O)c2ccccc12)OCc1cc(=O)n2ccsc2n1	5	99	107	-8
CCCn1c(SCC(=O)c2ccccc2)nc2ccccc21	·	99	98	0
CCOC(=O)c1ccccc1NC(=O)c1ccccc1N(C)S(C)(=O)=O	-12	101	104	-5
CCOCCCn1c(Sc2ncnc3c2oc2ccccc23)nc2ccccc2c1=O	5	97	104	-5
NC(=O)N1CCc2ccccc21	10	101	102	8
COC(=O)N/N=C(\C)c1ccc(C)c(C)c1	-5	103	103	0
CCc1ccc2c(c1)c1nnc(SCC(=O)NC3CCCCC3C)nc1n2C (stereo unspecified)	16	101	103	-2
O=C(NCO)c1ccccc1	·	104	104	-7
O=C(CCSc1ccccc1Cl)NC1CCCCCC1	·	102	103	-7
CC1SC(c2ccc(Br)cc2)N(c2ccccc2)C1=O (stereo unspecified)	0	103	105	·
CCc1nnc2c(NCCCN3CCN(c4ccccc4)CC3)nc3ccccc3n12	-22	101	101	15
O=C(COc1ccc(F)cc1)N(Cc1ccccc1)c1ccccn1	8	102	103	21
CCOC(=O)c1c(C)c(=O)oc2c1c(=O)[nH]n2-c1ccccc1	-24	98	94	14
Clc1ccc(-c2noc(CNC3CCCCC3)n2)cc1	3	101	102	-6
Cc1nnc(SCC(=O)N(C2CCCCC2)C2CCCCC2)[nH]c1=O	9	102	104	9
Cc1nc2ccccn2c1C(=O)N1CCCC(C)C1 (stereo unspecified)	-37	99	103	12
CCN(CC)C(=O)c1cc(-c2ccc(C)cc2)on1	5	100	98	·
CC12CC[C@H]3[C@@H](CCC4(O)C[C@H](O)CCC34/C=N/NC(=O)c3ccccc3O)C1(O)CCC2C1=CC(=O)OC1 (stereo partly specified)	-19	101	104	-50
COC(=O)c1sc(N)c(C(=O)OC)c1COC(=O)[C@H](C)N=C1NS(=O)(=O)c2ccccc21	-6	107	110	-2
CCS(=O)(=O)Nc1ccc(C(=O)N2CCN(Cc3ccc4c(c3)OCO4)CC2)cc1	5	103	102	-4
Cc1c(C(=O)N2CCCC2)oc2ccc3c(c12)C(O)CC(C)(C)O3 (stereo unspecified)	-5	103	106	-19
CCC1CCCCN1C(=O)CSc1nc2ccccc2[nH]1 (stereo unspecified)	·	100	102	53
CCCCNC(=O)c1ccc2c(c1)NC(=O)C(CS(=O)(=O)Cc1ccccc1C)N2 (stereo unspecified)	5	103	108	69
O=c1ccc(-c2ccc(S(=O)(=O)N3CCc4ccccc43)o2)n[nH]1	10	·	·	-8
CNC(=O)CSc1nc(-c2ccccc2)c(-c2ccccc2)[nH]1	·	102	101	-179
Cc1ccc(NCCCCO)c(C)c1	22	100	112	5
Cc1csc2sc(/C=C(\C#N)S(=O)(=O)c3cccs3)c(C)c12	10	104	105	0
O=C1CCN(C(=O)Cn2c(C(F)(F)F)nc3ccccc32)CC1	-41	102	100	-4
O=C(c1cccc(C(F)(F)F)c1)N(c1ccccn1)C1CCCCC1	9	101	101	4
Cc1onc(-c2c(Cl)cccc2Cl)c1/C(N)=N/OC(=O)C(C)(C)C	-16	104	99	-5
CC1CC(=O)Nc2ccccc2N1C(=O)Nc1ccccc1 (stereo unspecified)	-2	101	103	-11
Cc1cccc(C)c1NC(=O)CCCN1CC(C)OC(C)C1 (stereo unspecified)	·	102	98	-1
Nc1nnc2sc(SCC(=O)O)nn2c1=O	-14	105	103	0
O=C(C(c1ccccc1)c1ccccc1)N1CCNCC1	-11	101	110	·
Cc1cc(C(=O)COC(=O)c2cccs2)c(C)n1Cc1cccs1	-43	104	107	7

Of the compounds above, these have an aryl thioether with sulfur outside any ring:
SMILES	MenB inh	Polio RdRp inh	Polio RdRp inh intensity	Mtb MbtI inh
Cc1nnc(SCc2nc3ccccc3c(=O)[nH]2)n1C1CC1	-13	103	102	-14
C=CCn1c(CCNC(=O)c2cccs2)nnc1SCC(=O)Nc1cccc(F)c1	-25	103	101	-2
N#Cc1c(-c2ccccc2)cc(-c2cccs2)nc1SCS(=O)Cc1ccccc1 (stereo unspecified)	-5	103	105	16
Cc1noc(C)c1COC(=O)c1cccnc1SCC(=O)Nc1ccc2c(c1)OCO2	-21	107	106	10
O=C(CCSc1nc(-c2ccco2)cc(C(F)(F)F)n1)NCCN1CCOCC1	3	102	104	10
CCCn1c(SCC(=O)c2ccccc2)nc2ccccc21	·	99	98	0
CCOCCCn1c(Sc2ncnc3c2oc2ccccc23)nc2ccccc2c1=O	5	97	104	-5
CCc1ccc2c(c1)c1nnc(SCC(=O)NC3CCCCC3C)nc1n2C (stereo unspecified)	16	101	103	-2
O=C(CCSc1ccccc1Cl)NC1CCCCCC1	·	102	103	-7
Cc1nnc(SCC(=O)N(C2CCCCC2)C2CCCCC2)[nH]c1=O	9	102	104	9
CCC1CCCCN1C(=O)CSc1nc2ccccc2[nH]1 (stereo unspecified)	·	100	102	53
CNC(=O)CSc1nc(-c2ccccc2)c(-c2ccccc2)[nH]1	·	102	101	-179
Nc1nnc2sc(SCC(=O)O)nn2c1=O	-14	105	103	0
